Mtb bLac sens – beta-lactam sensitization of Mtb H37Rv, H37Rv; M. tuberculosis H37Rv growth with meropenem, percent inhibition; hits of this screen are not shown here; inhibition, % at 25 µM; hit rate 0.27% among 330,000;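 active = about 74% or more and at least 40 points above the plate without the antibiotic, then above 30% in a dose series; inconclusive = first-round hits that could not be retested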;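 note: growth measured after seven days incubation then overnight dye step; 0% = bacteria only wells and 100% = bacteria with antibiotic; twin plates without the antibiotic show which effects depend on it; some results filed as inactive read as strong as hits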
Arbovirus inh – antivirals against arbovirus infection, primary screen, cell-based, full library, 10K replicate subset. arbovirus infection cell-based antiviral screen. hit rate 0.37% among 200,000. inhibition, % at 10 µM. AID 1251, 2008;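 active = inhibition from about 30%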;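 note: bluetongue infection of BSR cells; cell survival read as ATP light after 72 h; 0% = infected wells without compound and 100% = uninfected wells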
RecA intein inh – Mtb RecA intein splicing inhibitors, primary screen, biochemical, fluorescence, HTS; inhibition, %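 (about 9 µM by stock and volumes)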; AID 2221, 2009; cell-free RecA intein splicing; Protein RecA (Mycobacterium tuberculosis (strain ATCC 25618 / H37Rv)), P9WHJ3; hit rate 0.75% among 290,000; in the data active = inhibition above about 30%; inconclusive = no clear call, values can overlap the other calls;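 note: 0% = vehicle wells and 100% = reference inhibitor control wells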
Target sequence (P9WHJ3 whole entry, looked up): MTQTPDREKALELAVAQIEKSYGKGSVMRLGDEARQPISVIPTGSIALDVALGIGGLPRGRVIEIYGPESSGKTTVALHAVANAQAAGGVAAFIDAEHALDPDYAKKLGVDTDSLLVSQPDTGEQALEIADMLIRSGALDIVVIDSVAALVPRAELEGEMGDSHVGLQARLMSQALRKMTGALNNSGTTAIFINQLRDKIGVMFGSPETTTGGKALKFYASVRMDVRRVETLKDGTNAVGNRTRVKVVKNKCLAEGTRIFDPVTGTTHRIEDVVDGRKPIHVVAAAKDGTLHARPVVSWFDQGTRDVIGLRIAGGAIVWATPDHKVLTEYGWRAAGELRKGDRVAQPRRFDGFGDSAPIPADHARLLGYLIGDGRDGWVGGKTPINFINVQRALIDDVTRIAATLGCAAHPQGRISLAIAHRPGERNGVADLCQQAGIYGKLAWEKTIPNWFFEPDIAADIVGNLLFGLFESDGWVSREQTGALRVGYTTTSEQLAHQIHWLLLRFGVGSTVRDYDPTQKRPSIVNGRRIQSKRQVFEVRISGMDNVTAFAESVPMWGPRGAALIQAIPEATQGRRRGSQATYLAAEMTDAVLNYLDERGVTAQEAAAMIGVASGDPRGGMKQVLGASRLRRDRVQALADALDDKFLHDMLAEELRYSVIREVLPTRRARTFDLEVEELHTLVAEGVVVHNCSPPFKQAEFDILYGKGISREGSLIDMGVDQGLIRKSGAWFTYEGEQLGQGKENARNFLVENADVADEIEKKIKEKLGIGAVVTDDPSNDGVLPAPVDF
Mtb growth – M. tuberculosis H37Rv growth inhibitors, H37Rv strain (AID 1626). inhibition, % at 10 µM; hits with a dose series show IC50 in µM. hit rate 0.95% among 220,000. M. tuberculosis H37Rv growth inhibition; higher % means a stronger effect;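 active = confirmed in a dose series; inconclusive = inhibition above 80% but not taken into the dose series; inactive = below 80% or under 30% at every dose of the series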;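 note: bacteria incubated seven days before Alamar blue readout; 0% = bacteria only wells and 100% = bacteria with antibiotic wells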
YopH inh – YopH tyrosine phosphatase inhibitors, primary screen, biochemical, fluorescence Ex485/Em525; YopH tyrosine phosphatase [Yersinia enterocolitica]; inhibition, %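 (about 10 µM by stock and volumes)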; hit rate 0.16% among 140,000; AID 898, 2007;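 active = inhibition of 50% or more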;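 note: controls were vehicle for no effect and minimum signal wells for full effect; inactives centre near -20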
Arbovirus inh repeat – second read-out of Arbovirus inh, no call of its own (marks repeat the call); inhibition, %; measured here: 10K subset replicate screen; many hits read low in the repeat;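 first of two repeat runs on a subset; 0% = infected and 100% = uninfected wells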
An asterisk follows results filed as active; ? = inconclusive; . = not tested or not shown. Not all compounds are listed; rates above refer to the full screens.

SMILES | Mtb bLac sens | Arbovirus inh | RecA intein inh | Mtb growth | YopH inh | others
C#CCOCCOCCOCCNc1nc(N2CCN(C(=O)C([C@@H](C)CC)n3cc(C(N)CO)nn3)CC2)nc(N2CCN(C(=O)C([C@@H](C)CC)n3cc(C(N)COC(=O)C(F)(F)F)nn3)CC2)n1 (some centres undefined) | -2.0 | . | -0.6 | -11.1% | .
CCN(CC)S(=O)(=O)c1ccc(C(=O)OCC(=O)Nc2ccc(-c3nc4ccc(C)cc4s3)cc2)cc1 | -4.8 | -9.5 | -1.8 | 0.5% | -45.0
Cc1ccc2c(CSc3nncs3)cc(=O)oc2c1 | -1.8 | 2.8 | 0.9 | -8.3% | -39.0
COc1ccc(NC(=S)NCCCCCC(=O)C[N+](=O)[O-])cc1 | 0.6 | 0.0 | 3.1 | 5.9% | .
COC(=O)C1C(=O)C=C(N2CCOCC2)CC1(C)C (centres undefined) | 1.0 | 6.1 | 1.2 | -1.8% | -19.7 | Arbovirus inh repeat=1.7
COCCCN1CN(S(=O)(=O)c2cccs2)c2nc3ccccc3nc21 | -5.2 | . | 2.4 | -2.5% | .
CCOc1ccc(CCNC(=O)Cn2c(-c3nonc3N)nc3ccccc32)cc1OCC | 2.8 | -6.3 | . | 9.0% | -32.7
COC(=O)c1sc(NC(=O)CSc2nnnn2C)nc1C | 1.8 | . | -2.5 | . | .
O=C(C1CCCN(Cc2ccc3c(c2)OCO3)C1)N1CCCC1 (centres undefined) | 0.1 | 1.3 | 1.6 | -1.5% | -31.4
NNC(=O)C(Cc1c[nH]c2ccccc12)NC(=O)c1ccccc1 (centres undefined) | -5.4 | . | 2.6 | -1.1% | .
Nc1c(C(=O)NC2CCCC2)c2nc3ccccc3nc2n1/N=C/c1ccco1 | 5.2 | 3.1 | -3.3 | -8.0% | -17.0
CC(C)[C@H](NC(=O)c1c(F)cccc1F)C(=O)Nc1cccc(Br)c1 | -3.8 | . | 1.5 | . | .
CCOC(=O)C1CCCN(S(=O)(=O)c2cc3[nH]c(=O)c(=O)[nH]c3cc2C)C1 (centres undefined) | 1.5 | . | 0.3 | . | .
COc1ccc(CCn2nnnc2CN2CCN(C(=O)c3ccco3)CC2)cc1OC | -2.3 | -4.8 | 0.9 | 7.4% | .
COc1ccccc1CCNC(=O)C(=O)NCC1OCCN1S(=O)(=O)c1ccccc1 (centres undefined) | 0.4 | . | -5.5 | . | .
O=S(=O)(NCC(c1ccco1)N1CCc2ccccc21)c1ccccc1 (centres undefined) | -7.2 | . | 3.4 | . | .
O=C(NC(O)C(=O)c1cccs1)c1cccnc1 (centres undefined) | -5.2 | -5.3 | 5.8 | 5.1% | -24.4
COc1ccc(C(CC(=O)Nc2nccs2)n2cccc2)cc1 (centres undefined) | -7.9 | 8.1 | -3.2 | -4.5% | -12.5
COCCN(CC1CCCN(C2Cc3ccccc3C2)C1)C(=O)c1cccc(C)c1 (centres undefined) | 3.5 | . | 8.3 | . | .
CCC[C@@H]1CCCO[C@@](C(=O)NCc2ccccn2)(C(F)(F)F)C1 | -3.3 | . | 0.3 | -4.4% | .
CC(C)=NOCc1ccc(-c2cn([C@@H]3COC[C@H]3O)nn2)cc1 | . | 8.6 | . | 12.2% | -23.1
Cc1n[nH]c(=O)c2c(NC(=O)CSc3nncs3)oc(C)c12 | -4.5 | . | -0.1 | . | .
Cc1c(Cl)cccc1NC(=S)NCCc1ccc(F)cc1 | 4.3 | . | 6.6 | . | .
CN(CCC#N)C(=O)CC1(Cc2ccccc2)CCOC(C)(C)C1 (centres undefined) | -3.0 | . | 4.4 | -9.6% | .
Nc1nonc1C(=O)N/N=C/c1cc2c(cc1[N+](=O)[O-])OCO2 | -3.8 | . | -2.0 | . | .
CCC(C(=O)NC(C)(C)C)N(Cc1cccs1)C(=O)CNS(=O)(=O)c1ccccc1 (centres undefined) | -3.7 | . | -1.5 | 1.7% | .
CC(=O)c1cccc(S(=O)(=O)N2CCN(c3nc4cc(C)cc(C)c4cc3C#N)CC2)c1 | 2.4 | -4.4 | -0.2 | . | -29.7
CCCc1noc2c1C(c1ccoc1)C(C#N)=C(N)N2 (centres undefined) | -5.5 | -8.5 | 79.2* | -2.5% | -11.2
CC(=O)Nc1ccc2c(c1)N(C(=O)CN(C)C)c1ccccc1CC2 | -11.4 | -3.9 | -3.5 | -7.6% | -0.7
O=C(NCC1CCCO1)C(c1ccc(F)cc1)N(Cc1ccc(F)cc1)C(=O)Cn1nnc(-c2cccs2)n1 (centres undefined) | -3.4 | 2.2 | -1.0 | -8.2% | -24.1
CCCCN(CCCC)CP(=O)(c1ccccc1)c1ccccc1 | -15.5 | -25.6 | 5.8 | -3.4% | -2.4
COCCn1c(C)cc(C(=O)CSc2ccc3ccccc3n2)c1C | -10.5 | 27.1 | 4.5 | -6.5% | -10.2
Cc1ccc(C(=O)NCCSc2ccc(Cl)cc2)cc1[N+](=O)[O-] | 99.7 | -1.9 | 11.3 | ? | -33.8
CC(C)(C)c1ccc(OCCNC(=O)Cc2ccc(F)cc2)cc1 | -2.5 | 3.2 | 1.8 | 82.1% | -17.4
CCOC(=O)c1nn(-c2ccc3c(c2)OCCO3)cc1O | 84.1 | 12.9 | 1.0 | 54.9% | .
COC(=O)CSC(=S)N1CCCC(C)C1 (centres undefined) | -1.2 | -0.5 | 0.2 | -1.1% | .
Cc1cccc(NC(=O)CSc2nc3ccccc3nc2N2CCCCC2)c1 | 6.5 | . | -0.4 | . | .
COc1ccc2cc(OCC(=O)NNC(=O)Nc3ccc(OC)c(OC)c3)ccc2c1 | 2.2 | . | -0.5 | . | .
O=S(=O)(c1ccc(OCC(O)CNCc2ccco2)c(Cl)c1)N1CCOCC1 (centres undefined) | -1.8 | -0.8 | -0.6 | . | -5.0
CCCN(CC(=O)Nc1ccccc1OC)C(=O)c1cc(S(=O)(=O)NCc2ccccc2)ccc1C | -14.1 | . | -0.3 | . | .

Reprinted from the part before: three entries, then new ones.
SMILES | Mtb bLac sens | Arbovirus inh | RecA intein inh | Mtb growth | YopH inh | others
COc1ccc2cc(OCC(=O)NNC(=O)Nc3ccc(OC)c(OC)c3)ccc2c1 | 2.2 | . | -0.5 | . | .
O=S(=O)(c1ccc(OCC(O)CNCc2ccco2)c(Cl)c1)N1CCOCC1 (centres undefined) | -1.8 | -0.8 | -0.6 | . | -5.0
CCCN(CC(=O)Nc1ccccc1OC)C(=O)c1cc(S(=O)(=O)NCc2ccccc2)ccc1C | -14.1 | . | -0.3 | . | .
Cc1cc(C)n(CCC(=O)N/N=C/c2ccc(Cl)c([N+](=O)[O-])c2)n1 | -5.2 | . | -0.8 | -3.3% | .
CCn1c(/N=C/c2ccccc2NS(=O)(=O)c2ccc(C)cc2)nc2ccccc21 | -4.6 | 13.7 | . | -12.8% | -25.3
Cc1nnc(SCc2nc3ccccc3s2)n1-c1ccccc1 | 3.4 | -4.2 | 4.1 | 0.2% | -25.9
CCCOc1ccc(C(=O)CCC(=O)OC(C)C(=O)Nc2ccc(NC(C)=O)cc2)cc1 (centres undefined) | -1.1 | . | 3.6 | . | .
CCn1c(C)c(C)c2cc(C(=O)NCCCN3CCCCCC3)ccc21 | -5.7 | . | 0.8 | . | .
O=C1C=C(Nc2ccc(Cl)cc2)CC(c2ccc(Cl)cc2)C1 (centres undefined) | 79.5 | -15.6 | 0.8 | 13.4% | -18.1
COc1cccc(C2C(C(=O)c3cccs3)=C(O)C(=O)N2c2cc(C)on2)c1 (centres undefined) | 9.1 | 17.1 | . | 0.8% | -37.6
CCn1c(N)c(C(=O)NCC2CCCO2)sc1=S (centres undefined) | 0.4 | 3.5 | -2.6 | 2.6% | -6.2
Cc1ccc(-c2c[n+](CC(=O)Nc3cc(=O)n(C)c(=O)n3C)c3n2CCC3)cc1 | 2.8 | -6.5 | -0.9 | 3.2% | -24.4
COc1ccc(-c2cn3cccnc3n2)cc1NC(=O)c1ccc(Br)o1 | . | -15.5 | -3.4 | 18.4% | -46.8
Cc1cc(C)cc(CC(CC(=O)Nc2ccc(Cl)cc2)C(=O)O)c1 (centres undefined) | 0.0 | . | 2.5 | . | .
CC1=NC(C(F)(F)F)(C(F)(F)F)C2=C(CC(C)(C)CC2=O)N1Cc1ccco1 | 2.4 | 0.2 | 0.3 | -6.3% | -8.8
CCOc1ccc(-c2nnc(SCC(=O)Nc3ccc4c(c3)c3ccccc3n4CC)n2N)cc1 | 0.1 | -30.1 | 2.3 | 2.0% | -13.9
O=C(NNC(=O)c1sccc1-n1cccc1)c1cccs1 | 1.6 | 6.9 | -1.0 | -4.3% | .
COc1ccc(CCNC(=O)CCc2ccsc2)cc1OC | -5.1 | . | -3.4 | . | .
CCC/C=N/NC(=O)C1COc2ccccc2O1 (centres undefined) | -6.0 | 0.8 | 0.5 | -7.0% | .
CS(=O)(=O)N1N=C(c2ccco2)CC1c1ccc(Cl)cc1 (centres undefined) | 0.4 | 6.1 | 2.5 | 1.6% | -29.4
NS(=O)(=O)c1ccc(NC(=S)NC(=O)c2cccc(Br)c2)cc1 | . | 0.5 | 8.6 | 3.2% | .
COC(=O)c1ccc(Oc2ccc(C(C)(C)C)cc2)c([N+](=O)[O-])c1 | 22.2 | 9.5 | 6.1 | . | -17.4
CC(C)C(=O)Nc1ccc2c(c1)C(=O)N(CCC(=O)O)C2=O | -6.2 | 11.3 | -1.4 | -12.1% | -18.9 | Arbovirus inh repeat=0.1
O=C(c1cccc(S(=O)(=O)N2CCCC2)c1)N1CCCC(C(F)(F)F)C1 (centres undefined) | -6.2 | . | -0.6 | . | .
CC1CCN(Cc2cc(=O)oc3cc4c(cc23)CCCC4)CC1 | 93.1 | . | -1.4 | -5.8% | .
O=C(NC1CCCCC1)C(=S)NCc1ccccc1 | -5.0 | -1.2 | 3.3 | 3.5% | .
COc1cc(-c2noc(C)c2C(=O)NCCc2c[nH]c3ccccc23)cc(OC)c1OC | 29.6 | . | 1.6 | . | .
Cn1c(Cn2c(=O)sc3ccccc32)nnc1SCC(=O)N1CCCC1 | -1.9 | -1.2 | -0.5 | -3.8% | -46.2 | Arbovirus inh repeat=-1.2
COC(=O)c1ccc(CSc2nc3ccc(S(=O)(=O)N4CCOCC4)cc3[nH]2)cc1 | -1.8 | 2.3 | 3.7 | 7.1% | -28.3
CCOC(=O)C1CCN(C(=O)c2ccco2)CC1 | 6.6 | 1.4 | . | -7.0% | -27.8
CCN(CC)S(=O)(=O)c1ccc(C(=O)OCC(=O)NCCN2C(=O)CSC2=O)cc1 | 0.1 | 5.9 | -2.6 | 3.2% | .
COC(=O)N1[C@H](Cc2ccccc2)C=C[C@]1(C)C(=O)O | -14.1 | 4.0 | 0.6 | -0.4% | -32.6
CN(C)S(=O)(=O)c1cccc2nsnc12 | 2.9 | -0.4 | 0.6 | -5.1% | -40.4
CC(C)(C)NS(=O)(=O)c1ccc(OCC(=O)Nc2ccc3c(c2)OCCO3)cc1 | 2.5 | 13.7 | . | -8.0% | -2.2 | Arbovirus inh repeat=6.9
CS(=O)(=O)N(CC(=O)N1CCN(c2ccc(F)cc2)CC1)C1CCCCC1 | -2.3 | 5.1 | -2.2 | -10.6% | 18.5
COc1ccccc1CNc1ccc(CNc2ncn[nH]2)cc1 | 1.7 | -6.6 | -5.7 | 4.6% | .
CC1CCCC(C)N1CC(O)COc1ccc(Cl)cc1 (centres undefined) | -2.9 | -5.6 | -2.3 | -7.7% | -37.6
NC(=O)NOCc1ncc(C(F)(F)F)cc1Cl | -13.4 | 3.5 | 1.1 | -1.0% | -1.9
COc1cccc2sc(N(CCCN(C)C)C(=O)C(c3ccccc3)c3ccccc3)nc12 | 92.2 | -28.6 | 5.3 | 13.5µM* | .
O=C1NC(=O)C(=Cc2coc3ccc(O)cc3c2=O)C(=O)N1 | 18.3 | . | -1.4 | -5.5% | .
O=C(NCc1ccccn1)c1ccc(CNS(=O)(=O)c2cccc(Cl)c2)cc1 | 1.4 | -6.3 | 0.0 | 4.1% | -30.8
Cn1c(C(=O)NCCCN2CCc3ccccc3C2)cc2c(=O)n(C)c3ccccc3c21 | -5.7 | -21.5 | 0.6 | 4.4% | -3.4
O=C(Cn1cnnn1)NCCc1ccc(Cl)cc1Cl | 3.5 | . | 0.5 | . | .
COc1cc2c(cc1OC)-c1c3c(cc4c1[C@@H](C2)N(C)CC4)OCO3 | 94.0 | -16.0 | 43.7* | 60.9% | 6.4
Cc1ccc(OCC(=O)NC2CCS(=O)(=O)C2)cc1 (centres undefined) | 1.6 | 5.2 | -3.6 | 1.1% | -4.4
